# Insulin prom inh: inhibitors of insulin promoter-driven GFP, primary screen, imaging, TRM-6 cells (human fetal islet line), eGFP reporter, cell count | reporter expression induced with tamoxifen | AID 1273, 2008 | inhibition, % at 2 µM | 130,000 compounds, 0.9% hits;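 active = inhibition above the mean plus 3 SD, with well images judged a real hit on visual review, cut at about 60% in these data, passing the limit was not always enough; inconclusive = inhibition over the cutoff but images rejected on review; inactive = inhibition not above the cutoff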
# PKD1 inh: inhibitors of human PKD1 kinase, biochemical, fluorescence polarization; Serine/threonine-protein kinase D1 (Homo sapiens), Q15139; PKD1 kinase fluorescence polarization assay; inhibition, %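 (about 10 µM by stock and volumes)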; 200,000 compounds, 0.056% hits;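 active = inhibition of 50% or more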;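 also: controls were vehicle for no effect and a reference inhibitor for full effect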
# GALR2 agonist: GALR2 receptor agonists, primary screen, cell-based; Galanin receptor type 2 (Homo sapiens), O43603; GALR2-expressing cells, agonist activation read-out; activation, %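 (tested at 5 µM)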; 140,000 compounds, 0.48% hits;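 active = above mean plus 3 SD of all compounds, about 5% in these data, not always enough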;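 also: 0% = vehicle buffer wells and 100% = reference agonist at full effect; tested in CHO reporter cells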
# Target sequence (O43603 whole entry, looked up): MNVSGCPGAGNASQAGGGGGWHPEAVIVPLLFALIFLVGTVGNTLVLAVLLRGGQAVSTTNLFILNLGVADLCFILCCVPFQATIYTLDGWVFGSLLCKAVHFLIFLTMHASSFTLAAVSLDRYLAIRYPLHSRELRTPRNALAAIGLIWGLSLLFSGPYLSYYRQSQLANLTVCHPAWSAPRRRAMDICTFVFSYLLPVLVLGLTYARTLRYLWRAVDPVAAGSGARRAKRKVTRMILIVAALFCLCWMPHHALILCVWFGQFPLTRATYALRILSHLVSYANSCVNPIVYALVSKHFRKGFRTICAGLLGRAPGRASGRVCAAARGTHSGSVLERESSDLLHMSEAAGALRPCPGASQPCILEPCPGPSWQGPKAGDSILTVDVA
# HSV augment: enhancers of HSV replication in host cells, fold increase, host cell viability; HSV replication augmentation in cells; AID 1956, 2009; maximum fold increase; 220,000 compounds, 0.005% hits;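 active = peak rise of 1.5-fold or more in the series; inconclusive = self-fluorescent or not available for retest; tested in PC3 cells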;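 also: first round at 10 µM; read as green reporter fluorescence; hits show the peak of a series up to 25 µM; 1 = signal of infected wells without compound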
# RGS16-Gao HTS: modulators of RGS16 binding to Galphao, primary screen, biochemical, human proteins, multiplexed bead flow cytometry; Regulator of G-protein signaling 16 (Homo sapiens) + Guanine nucleotide-binding protein …; bead-based flow cytometry RGS16-Galphao binding, fluorescence; actives lie on both sides; binding response (% of control), % at 10 µM; 220,000 compounds, 0.38% hits; AID 1441, 2008;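 active = below 25% or above 175%, edge rows of some plates excepted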;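 also: Galphao activated by GDP with aluminum fluoride before binding; 100% = wells without compound and 0% = beads without RGS; some results beyond the cut were filed as inactive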
# Target sequence (O15492 whole entry, looked up): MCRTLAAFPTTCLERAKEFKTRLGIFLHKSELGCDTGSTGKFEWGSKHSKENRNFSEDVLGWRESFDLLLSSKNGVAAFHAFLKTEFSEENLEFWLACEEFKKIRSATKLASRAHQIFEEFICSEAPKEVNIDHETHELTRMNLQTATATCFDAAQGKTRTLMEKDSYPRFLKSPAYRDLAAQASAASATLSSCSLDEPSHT
# Target sequence (P09471 whole entry, looked up): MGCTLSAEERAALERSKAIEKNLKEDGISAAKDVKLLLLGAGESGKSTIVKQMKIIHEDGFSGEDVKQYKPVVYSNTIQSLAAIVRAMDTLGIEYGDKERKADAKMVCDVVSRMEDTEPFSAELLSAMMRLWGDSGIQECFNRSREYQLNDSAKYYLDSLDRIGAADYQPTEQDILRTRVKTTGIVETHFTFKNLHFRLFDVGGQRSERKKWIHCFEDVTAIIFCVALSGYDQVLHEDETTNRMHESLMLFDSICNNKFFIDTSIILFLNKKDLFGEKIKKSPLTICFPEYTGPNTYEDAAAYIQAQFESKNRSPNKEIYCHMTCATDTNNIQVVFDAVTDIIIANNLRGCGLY
# Insulin prom inh cell count: second read-out of Insulin prom inh, no call of its own (marks repeat the call); normalized cell count, %; measured here: cell count, toxicity; reference of the scale not given here;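 cells exposed to compound for 48 h; stained nuclei by imaging scaled within each plate; lower means fewer cells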
# HSV augment primary fold: recorded beside HSV augment, whose call it bears; fold increase; compound at 10 µM; measured here: primary screen fold increase 10 uM; tested in PC3 cells;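 GFP signal in the first replicate; 1 = infected wells without compound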
# The depositor's hits bear a star; i = inactive; ? = inconclusive; . = not tested or not shown; & = joins results of further samples.
SMILES,Insulin prom inh,Insulin prom inh cell count,PKD1 inh,GALR2 agonist,HSV augment,HSV augment primary fold,RGS16-Gao HTS
COc1ccc(CNC(=O)Cn2ncn3cccc3c2=O)cc1,-27,199,-3,.,i,0.91,110
Cc1c2c(nc3ccccc13)CCC(C(C)(C)C)C2 (stereo unspecified),60,92,-1,.,i,0.86,106
Cn1nc(C(C)(C)C)cc1C(=O)NNC(=O)c1ccc(C(F)(F)F)cc1,.,.,.,.,i,0.99,96
Cc1ccc(NC(=O)CSc2nnc(-c3ccccn3)n2N)cc1F,.,.,.,.,i,1.1,91
CN(C(=O)COC(=O)c1cc([N+](=O)[O-])ccc1Sc1ccccc1)C1CCS(=O)(=O)C1 (stereo unspecified),-142,32,-2,.,i,0.99,113
CC(C)CNC(=O)NC(=O)COC(=O)c1cccc(NS(=O)(=O)c2ccc(F)c(F)c2)c1,-24,86,-2,-0.1,i,0.94,106
COc1ccccc1-n1c(SCC(=O)OC(C)C)nc2cccnc21,.,.,.,.,i,0.93,98
CCOC(=O)NC(=O)/C(C#N)=C(/C)N(C)C,-33,118,0,.,i,0.93,107
CCOC(=O)c1sc(NC(=O)C(CC)Sc2nnc3c4ccccc4n(CC)c3n2)nc1C (stereo unspecified),.,.,.,.,i,1,100
CC1(C)Cc2c(C#N)c(OCC(=O)c3ccc(Cl)cc3)nc(-c3ccco3)c2CO1,-62,121,-12,-1.5,i,0.95,71
CONC(=O)c1cc(OCC(F)(F)F)ccc1OCC(F)(F)F,-2,113,-10,-2.5,i,0.86,101
Cc1ccc(S(=O)(=O)N2CCC(C(=O)Nc3ccc4c(c3)OCO4)CC2)cc1,-408,96,2,-1.3,i,0.77,13
Cc1cc(C)n(-c2nc(-n3nc(C)cc3C)c3c4c(sc3n2)COC(C)(C)C4)n1,-13,55,-39,-1.5,.,.,90
O=c1ccc2ccc(OCc3nnc(-c4ccccc4Br)o3)cc2o1,7,117,-3,1.5,i,0.95,109
CCOC(=O)C1=C(CNCCc2ccc(Cl)cc2)NC(=O)NC1c1ccc2c(c1)OCO2 (stereo unspecified),0,79,2,0.6,i,0.78,874
COC(=O)c1cc(NC(=S)N2CCN(c3ccccn3)CC2)cc(C(=O)OC)c1,29,104,-1,.,i,0.93,106
Oc1ccc(/C(Cc2ccccn2)=N\Nc2ccccc2)c(O)c1,.,.,-9,.,i,1.1,101
CCOC(=O)C1CCN(c2ncnc3c2oc2ccc(Cl)cc23)CC1,-13,112,2,-1.2,i,0.86,125
c1ccc(-c2nc(-c3ccncc3)n[nH]2)nc1,.,.,.,.,i,0.8,99
Cc1cc(C)nc(/N=C(/NC(=O)Nc2ccc(Cl)c(Cl)c2)Nc2cccc(Cl)c2)n1,.,.,-5,-1.0,i,1.1,83
O=C(Nc1ccc(CN2CCS(=O)(=O)CC2)cc1)c1ccccc1,.,.,.,.,i,0.85,97
COc1ccc(NC(=S)NC2CCCCC2)cn1,-33,21,-3,.,i,0.98,111
CC(=O)c1cccc(NC(=S)NCCc2ccc(Cl)cc2)c1,-37,84,8,.,i,1.1,103
Cc1cc(C)[n+](C)n1CC(O)Cn1c2ccccc2c2ccccc21 (stereo unspecified),.,.,-2,.,i,0.77,99

# Two records drawn at random from the list so far, as already listed:
SMILES,Insulin prom inh,Insulin prom inh cell count,PKD1 inh,GALR2 agonist,HSV augment,HSV augment primary fold,RGS16-Gao HTS
Cc1cc(C)n(-c2nc(-n3nc(C)cc3C)c3c4c(sc3n2)COC(C)(C)C4)n1,-13,55,-39,-1.5,.,.,90
O=C(Nc1ccc(CN2CCS(=O)(=O)CC2)cc1)c1ccccc1,.,.,.,.,i,0.85,97

# Further structures follow:
SMILES,Insulin prom inh,Insulin prom inh cell count,PKD1 inh,GALR2 agonist,HSV augment,HSV augment primary fold,RGS16-Gao HTS
Cc1cccc2cc3c(N)c(C(=O)N4CCCc5ccccc54)sc3nc12,.,.,0,0.7,?,.,105
O=C(COc1ccc([N+](=O)[O-])cc1Cl)NCCc1ccccc1,-72,128,-9,-0.2,i,0.87,107
N#Cc1cccc(NC(=O)CC2CCCCC2)c1,14,95,7,-0.9,i,0.82,116
Cc1ccc(Cl)cc1N1CCN(C(=O)C2CCN(S(=O)(=O)c3cccnc3)CC2)CC1,3,133,-1,-0.4,i,0.81,97
CN1C(=O)CC(C(=O)O)SC1=Nc1cc(Cl)c(O)c(Cl)c1 (stereo unspecified),0,116,-4,-1.0,i,0.78,99
Cc1ccc(NC(=O)CS(=O)CC(=O)N(c2ccc(C)cc2)C(C)C(=O)NC2CCCCC2)cc1 (stereo unspecified),-160,73,-2,-2.0,i,0.78,132
O=C1C2C(C(=O)N1c1nccs1)C1C=CC2C12CC2 (stereo unspecified),-29,69,-5,.,i,1.1,100
CC1C=CCC2C(=O)N(c3ccccc3OC(=O)c3cccs3)C(=O)C12 (stereo unspecified),.,.,-5,.,i,0.95,106
Cc1nnsc1C(=O)NC(C)C12CC3CC(CC(C3)C1)C2 (stereo unspecified),.,.,0,-1.2,i,0.9,100
CCCN(CCC)CCNc1c(NC2CCN(C(=O)OCC)CC2)c(=O)c1=O,.,.,-6,-1.3,i,0.95,99
COc1ccc(/C=C(/C(=O)Nc2ccccc2C(=O)N2CCCC2)c2ccccc2)cc1,-6,76,-3,-2.1,i,0.78,105
CN1CCN(C(=O)c2ccc3c(=O)n(-c4ccc(F)cc4)c(=S)[nH]c3c2)CC1,.,.,12,.,i,0.74,96
O=C(CN1CC[n+]2c(-c3ccccc3)csc21)c1ccc(Br)cc1,.,.,.,.,i,0.96,101
CCCCN(C(=O)Cc1cccc(F)c1)c1c(N)n(CCC)c(=O)[nH]c1=O,.,.,-6,.,i,0.97,99
CCC(C)N1CCN(C(=O)c2cccs2)CC1 (stereo unspecified),-33,127,2,-1.9,i,0.99,104
CCN(CC)CC#CCC(O)(c1ccccc1)c1ccc(Br)cc1 (stereo unspecified),.,.,-5,.,i,0.85,99
O=C(N/N=C/C=C/c1ccccc1[N+](=O)[O-])c1cccs1,.,.,-5,-0.8,i,0.75,100
Cc1[nH]c2ccccc2c1C(O)CN1CCC2(CC1)OCCO2 (stereo unspecified),.,.,.,.,i,0.91,102
c1cncc(-c2nnc3n2CCC3)c1,.,.,-13,-0.4,i,0.73,130
Cc1ccc(NC(=O)c2ccncc2)cc1[N+](=O)[O-],-2,125,-11,-1.2,i,1.2,102
O=C1C(=Cc2cccs2)C(=O)c2ccccc21,7,108,-2,-2.0,i,0.98,88
COc1ccc(-n2cc(CN(C)C(C)c3ccncn3)c(-c3cccc(F)c3)n2)cc1 (stereo unspecified),.,.,-4,.,i,0.92,107
O=c1oc(Nc2cccc(Cl)c2)nc2ccccc12,26,105,-10,.,i,1,97
CCOc1ccc(N=C2NC(=O)C(CC(=O)Nc3ccccc3)S2)cc1 (stereo unspecified),-41,73,-5,.,i,1,99
O=C(Nc1ccccc1)c1ccccc1NC(=O)C1CCCCC1,.,.,13,-3.0,i,0.83,98
CCOC(=O)N1CCN(C(=O)/C(=C/c2cccc3ccccc23)NC(=O)c2ccc(OC)c(OC)c2)CC1,-36,137,2,-1.3,i,0.99,109
CC1(C)CC(O)C(CCC(O)c2ccccc2)C(C)(C)N1 (stereo unspecified),.,.,1,-1.9,i,0.93,109
O=c1c2ccccc2c(C=Nc2ccc(O)cc2)c(O)n1Cc1ccccc1,.,.,.,.,i,0.53,95
CCOc1ccc(NC(=O)CNC(=O)c2cn(-c3ccccc3OC)c(=O)c3ccccc23)cc1,.,.,7,-1.5,i,1,107
O=C(c1ccc(Cl)cc1)C1CCCN(Cc2cccn2-c2cccnc2)C1 (stereo unspecified),-29,68,-5,.,i,0.98,190
CC1CCN(C(=O)c2cccc(S(=O)(=O)N3CCCCC3)c2)CC1,-13,126,-7,-1.3,i,1.1,113
COc1ccc(/C=C/C(=O)c2ccc(Cl)s2)cc1O,33,85,-8,-1.6,i,0.75,106
CCCCc1ccc(NC(=O)c2ccc(NS(C)(=O)=O)cc2)cc1,-7,117,-9,.,i,0.88,98
Clc1ccc(-c2ccnc(-n3cccc3)n2)s1,20,96,4,.,i,0.98,102
Cc1nn(C)c(C)c1N1C(=O)c2cccc3c(Br)ccc(c23)C1=O,45,69,10,0.7,?,.,107
CCCNC(=O)CSc1nc2ccccc2c(=O)n1CCC,-42,34,2,.,i,0.92,110
O=C(C1CC1)N1CCc2cc(Br)cc(S(=O)(=O)NCCN3CCOCC3)c21,.,.,-15,-0.7,i,0.99,103
CN(C)S(=O)(=O)c1cccc(NC(=O)COC(=O)CCOc2ccccc2)c1,.,.,-3,.,i,0.98,101
CC(=O)/C=C1/SC(CC(=O)O)C(=O)N1c1ccccc1 (stereo unspecified),-175,87,0,-1.4,i,0.99,103
Clc1ccc(-c2nc(C3CCCCC3)no2)cc1,-75,128,-5,.,i,0.99,106
CC(C)C(c1nnnn1CCc1ccccc1)N1CCN(C(=O)c2ccco2)CC1 (stereo unspecified),.,.,4,-0.8,i,0.9,102
CCCOc1ccc(C(NC(=O)CC(C)C)NC(=O)CC(C)C)cc1OC,0,130,9,-0.6,i,1,110
CCCSC1=C(C#N)C(c2cccs2)CC(=O)N1 (stereo unspecified),.,.,.,.,i,1.1,111
Cc1ccc(-c2csc(N=C(N)N)n2)c(C)c1,.,.,.,.,i,0.91,84
Cc1cccc(NC(=O)c2ccc(-n3ccnc3)nc2)c1,-15,87,2,-2.4,i,1.1,101
Cc1cc(Br)ccc1NC(=O)CCSc1ccccc1,8,57,-11,0.5,i,1.2,100
Cc1cc(=O)oc(C)c1C(=O)OCC(=O)c1ccc(Cl)cc1,13,54,-17,-2.2,i,0.91,104
Cc1cccc(N2CCN(C(=O)CCc3nc4ccccc4[nH]3)CC2C)c1 (stereo unspecified),.,.,-8,-1.5,i,0.73,251

# Reformatted with two lines to a compound: part of the list above.
# Each structure is followed by: Insulin prom inh	Insulin prom inh cell count	PKD1 inh	GALR2 agonist	HSV augment	HSV augment primary fold	RGS16-Gao HTS
- Cc1nn(C)c(C)c1N1C(=O)c2cccc3c(Br)ccc(c23)C1=O
→ 45	69	10	0.7	?	.	107
- CCCNC(=O)CSc1nc2ccccc2c(=O)n1CCC
→ -42	34	2	.	i	0.92	110
- O=C(C1CC1)N1CCc2cc(Br)cc(S(=O)(=O)NCCN3CCOCC3)c21
→ .	.	-15	-0.7	i	0.99	103
- CN(C)S(=O)(=O)c1cccc(NC(=O)COC(=O)CCOc2ccccc2)c1
→ .	.	-3	.	i	0.98	101
- CC(=O)/C=C1/SC(CC(=O)O)C(=O)N1c1ccccc1 (stereo unspecified)
→ -175	87	0	-1.4	i	0.99	103
- Clc1ccc(-c2nc(C3CCCCC3)no2)cc1
→ -75	128	-5	.	i	0.99	106
- CC(C)C(c1nnnn1CCc1ccccc1)N1CCN(C(=O)c2ccco2)CC1 (stereo unspecified)
→ .	.	4	-0.8	i	0.9	102
- CCCOc1ccc(C(NC(=O)CC(C)C)NC(=O)CC(C)C)cc1OC
→ 0	130	9	-0.6	i	1	110
- CCCSC1=C(C#N)C(c2cccs2)CC(=O)N1 (stereo unspecified)
→ .	.	.	.	i	1.1	111
- Cc1ccc(-c2csc(N=C(N)N)n2)c(C)c1
→ .	.	.	.	i	0.91	84
- Cc1cccc(NC(=O)c2ccc(-n3ccnc3)nc2)c1
→ -15	87	2	-2.4	i	1.1	101
- Cc1cc(Br)ccc1NC(=O)CCSc1ccccc1
→ 8	57	-11	0.5	i	1.2	100

# Next section.
SMILES,Insulin prom inh,Insulin prom inh cell count,PKD1 inh,GALR2 agonist,HSV augment,HSV augment primary fold,RGS16-Gao HTS
O=c1[nH]c2ccc(NC(=S)NCc3ccccc3)cc2[nH]1,.,.,.,.,i,0.91,104
O=C(c1ccccc1[N+](=O)[O-])N1CCc2ccccc2C1,.,.,-12,-2.1,i,0.98,99
S=c1[nH]c2cc3ccccc3cc2[nH]1,.,.,.,.,i,1.1&0.84,99&99
Cc1cc(=O)oc(C)c1C(=O)Nc1ccc(F)cc1,.,.,.,.,i,1,91
CCn1cnc2c1c(=O)n(CC(=O)Nc1cc(C)on1)c(=O)n2Cc1ccccc1,24,106,-8,0.4,i,0.96,111
CN1C(=O)CS(=O)c2ccc(C(=O)NCCC3=CCCCC3)cc21 (stereo unspecified),.,.,-10,-2.8,i,0.93,104
Cc1ccc2c(c1)nc(NCCO)n2C,-12,115,-11,-1.0,i,1,107

# Screens from PubChem.
